Sa helicase inh – blocks Staphylococcus aureus DNA helicase; purified S. aureus helicase, fluorescence unwinding assay; about half of the hits fall short of the stated cut; inhibition, %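 (tested at about 80 µM)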; 120,000 tested, 0.05% active; AID 485395;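 active = both duplicates at 50% or more, or one of them with a favoured structure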;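 note: 0% = mean of negative control wells and 100% = mean of positive control wells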
MgrA DNA FP – S. aureus MgrA-DNA binding modulation; fluorescence polarization; inhibition, %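 (about 10 µg/mL by stock and volumes)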; 84,000 tested, 0.13% active; AID 602314;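 active = above 50% in either of two replicates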;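 note: 0% = protein plus DNA without compound and 100% = DNA alone without protein; higher means less MgrA bound to DNA so lower polarization; one replicate is shown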
* = called active by the depositor; nt = not tested or not shown; & = joins results of further samples. An excerpt (hit frequency here may not be typical).

Below each SMILES – Sa helicase inh	MgrA DNA FP
1	COc1c(O[C@@H]2O[C@H](CO)[C@@H](O)[C@H](O)[C@H]2O)cc2c(c1OC)-c1ccc(SC)c(=O)cc1C(NC(C)=O)CC2 (stereo not given in full)
    nt	-1.9
2	O=c1[nH]c2ccccc2nc1/C=C(\O)c1cccc2ccccc12
    3.0	12.9
3	O=C1c2ccccc2-c2nnc(-c3cccs3)cc21
    -3.0	8.2
4	CC1CCCC(C)N1CCCNC(=O)NCc1noc2ccccc12 (stereo not given)
    10.0	-0.3
5	O=c1[nH]c2ccccc2s1
    -19.0&-13.0	nt
6	CCOC(=O)c1cnn(CCOC(=O)C(C)(C)C)c1NC(=O)C(C)(C)C
    -11.0	nt
7	c1ccc(N2CCN(Cc3nnnn3Cc3ccc4c(c3)OCO4)CC2)cc1
    1.0	0.6
8	NNc1ccc(Br)cc1
    12.0	-5.0
9	CSC(SC)=C(C#N)C(=O)c1cccc(C(F)(F)F)c1
    nt	8.8
10	COc1cccc2c1c(NC(=O)C1CCN(C(=O)OCc3ccccc3)CC1)nn2C
    -7.0	nt
11	CCN(CC)Cc1nc2sc(C)c(C)c2c(=S)[nH]1
    -13.0	nt
12	COC(=O)c1sc2nc3ccccc3cc2c1N
    -10.0	1.6
13	Cc1ccc2oc(=O)cc(CSc3cnc4ccccc4n3)c2c1
    7.0	nt
14	COc1ccc(C)cc1N(C)C(=O)c1cc2c(=O)[nH]c3ccc(C)cc3c2s1
    17.0	-0.2
15	COc1ccc(C(=O)/C=C/Nc2ccc(S(=O)(=O)Nc3cnc4ccccc4n3)cc2)cc1
    -13.0	0.2
16	Cc1cc2cc(CNC(=O)CCC3CCCC3)ccc2n1C
    12.0	nt
17	CC1=C(C(=O)N2CCN(Cc3ccccc3)CC2)C2(CCCCC2)OC1=O
    16.0	nt
18	COc1cc(SC)ccc1C(=O)Nc1ccc(S(=O)(=O)N(C)C)cc1
    -9.0	nt
19	COc1ccc(Br)cc1CNC(=O)C1CCCN(S(C)(=O)=O)C1 (stereo not given)
    10.0	0.6
20	COc1cc(-c2cn[nH]c2N)cc(OC)c1OC
    14.0	nt
21	Cc1ccccc1NC(=O)CSc1[nH]c(=O)cc(C)c1C#N
    -9.0	nt
22	O=C(OCc1cc(=O)n2ccsc2n1)c1ccccc1NCCO
    1.0	nt
23	CN(C)CCC=C1c2ccccc2CCc2ccccc21
    nt	1.1&2.0
24	Cc1ccc2[nH]c3c(c2c1)CCCC3Nc1ccc(Cl)cc1 (stereo not given)
    -6.0	0.0
25	O=[N+]([O-])c1c(Sc2ccc(C(F)(F)F)cn2)ncnc1Sc1ccc(C(F)(F)F)cn1
    nt	-2.1
26	CCOC(=O)c1c(/N=c2\oc3cc(O)ccc3cc2C(N)=O)sc2c1CCCC2
    nt	-1.7
27	CC(C)(C)C(=O)NCCn1ccc2ccccc21
    -12.0	nt
28	Cc1c(C)c(C)c(CSc2nnc(/C(C#N)=C/c3c(Cl)cccc3Cl)n2C)c(C)c1C
    nt	2.4
29	O=C(NCc1ccccc1)c1cccnc1NCc1ccccc1
    2.0	-1.5
30	CCOC(=O)CCCn1c(C)nc(=O)c(-c2ccccc2)c1C
    13.0	nt
31	CC1CCCN(CC(O)COCc2ccc(Cl)cc2)C1 (stereo not given)
    -8.0	nt
32	Nc1ccc(S(=O)(=O)N2CC(=O)NC(=O)C2)cc1
    9.0	-1.3
33	O=C(NCCc1ccc(F)cc1)c1ccco1
    10.0	-1.8
34	CC(CC(=O)Nc1ccccc1)CC1=NS(=O)(=O)c2ccccc2N1 (stereo not given)
    -12.0	nt
35	N/C(=N\OC(=O)c1ccccc1)c1cccnc1
    1.0	-3.1
36	O=c1/c(=C\c2ccccc2)sc2nc3ccccc3n12
    17.0	1.9
37	O=C(c1ccc(CN2CCc3ccccc3C2)cc1)N1CCCCC1
    4.0	nt
38	COc1ccc(Cl)cc1N1C(=O)COCC1=O
    nt	1.9
39	O=C(Nc1cccc2ccccc12)c1cc2ccccc2oc1=O
    5.0	1.5
40	CCc1ccc(OC)c(S(=O)(=O)N2CCCCC2)c1
    4.0	-3.7
41	COc1ccccc1NC(=O)c1cc2cc(Br)ccc2oc1=N
    9.0	nt
42	O=C(NCCN1CCCCC1)Nc1ccccc1
    -11.0	1.5
43	C/C(=N/NC(N)=O)c1ccc(Sc2ccc(Cl)cc2)c([N+](=O)[O-])c1
    nt	-0.2
44	Cc1cc(Cc2cccs2)c(=O)[nH]n1
    nt	0.1
45	CCCc1cc(=O)oc2cc(OC)ccc12
    21.0	nt
46	Cc1nn(C(C)(C)C)c(C(=O)Sc2cccc(C(F)(F)F)c2)c1Br
    nt	-1.7
47	O=c1cc(O)c2c(=O)n3c4c(cccc4c2o1)CCC3
    -1.0	3.0
48	Cc1[nH]nc(N)c1C1(O)C(=O)Nc2c(Cl)cc(Cl)cc21 (stereo not given)
    -7.0	1.2
49	CCOC(=O)c1cc(-c2ccccc2)n(CC(=O)N2CCN(C3CCCCC3)CC2)c1C
    15.0	nt
50	CCCOc1ccccc1O
    10.0	nt
51	CC(=O)NC(=O)c1cc2cc(Br)ccc2oc1=Nc1ccccc1C
    nt	1.0
52	N#CC(C#N)=Cc1ccc(Oc2ccccc2)nc1
    -12.0	nt
53	COc1ccc(-c2cc(-c3ccccc3)nc(SCC(N)=NC#N)c2C#N)cc1
    -1.0	-1.4
54	COc1ccccc1NC(=O)CSc1nc2ccccc2o1
    5.0	1.2
55	O=C(CN1C(=O)c2ccccc2C1=O)OCc1nc2ccccc2s1
    6.0	nt
56	CCNC(=O)c1ccccc1-c1nc(-c2ccc(OC)c(OC)c2)no1
    12.0	1.9
57	CN(C)S(=O)(=O)c1ccc(SCC(=O)Nc2ccc3c(c2)CCC3)nc1
    -1.0	nt
58	O=C(CNC(=O)c1ccc(Br)o1)Nc1ccc(Br)c(C(F)(F)F)c1
    -46.0	nt
59	CCc1ccccc1Nc1nc(N)nc(CN2C(=O)NC3(CCCCCC3)C2=O)n1
    8.0	nt
60	O=C(c1cccn2c(=O)c3cc4ccccc4cc3nc12)N1CCN(Cc2ccc3c(c2)OCO3)CC1
    -92.0	nt

More compounds follow.
Below each SMILES – Sa helicase inh	MgrA DNA FP
61	CC1CCN(C(=O)Cn2cc(C=C3C(=O)N(C)C(=O)N(C)C3=O)c3ccccc32)CC1
    23.0	nt
62	CCc1nnsc1C(=O)Nc1c(C(=O)Nc2ccccc2)oc2ccccc12
    11.0	nt
63	CCNc1nc(NCC)n2c(=S)[nH]nc2n1
    17.0	1.8
64	CCOC(=O)c1cc2ccccc2nc1N
    -4.0	-2.8
65	Cc1ccc(-n2nnnc2-c2cnn(-c3ccccc3)c2C)cc1
    nt	0.5
66	CCC(C)NS(=O)(=O)c1ccc(F)c(OC)c1 (stereo not given)
    -24.0	1.5
67	Cc1cc(NC(=O)C(C)Oc2ccccc2)no1 (stereo not given)
    4.0	nt
68	CS(=O)(=NS(=O)(=O)c1cc(S(=O)(=O)c2ccccc2)cs1)c1ccccc1 (stereo not given)
    24.0	nt
69	Cc1ccc(C(C)C)c(OCCn2c(CCNC(=O)c3ccco3)nc3ccccc32)c1
    11.0	nt
70	Cc1ccc(OCC(O)CNc2ccc(Br)c(C(F)(F)F)c2)cc1C (stereo not given)
    nt	-4.3
71	COc1cccc(NC(=O)C2c3ccccc3C(=O)N3CCc4ccccc4C23)c1 (stereo not given)
    3.0	-1.2
72	CCOC(=O)N1CCC(n2c(SCc3ccc(F)cc3Cl)nc3ccsc3c2=O)CC1
    4.0	1.4
73	CCn1c(C)cc(/C=C2\C(=O)NC(=O)N(c3ccc(OC)cc3)C2=O)c1C
    16.0	-1.5
74	Cc1nn(C)c2c1S(=O)(=O)N=C(N1CCOCC1)S2
    nt	0.1
75	CCOC(=O)NN1C(=O)c2ccccc2NC1C (stereo not given)
    21.0	nt
76	Cc1nc2ccccc2nc1CSc1nnc(-c2cccc(S(=O)(=O)N3CCOCC3)c2)o1
    -14.0	nt
77	CCOc1ccc(-n2c(=O)c3c(C)c(C)sc3n(CC(=O)N3CC(C)CC(C)C3)c2=O)cc1 (stereo not given)
    17.0	nt
78	O=C1c2ccccc2C(=O)N1CCN1CCN(Cc2ccccc2)CC1
    -8.0	nt
79	Cc1ccc(/C=C/C(=O)O)o1
    -2.0	0.1
80	CCC1CCCCN1C(=O)CSc1ncnc2ccccc12 (stereo not given)
    -15.0	-3.3
81	Cc1cccn2c(=O)c3cc(C(=O)NC4CCCCC4)c(=N)n(Cc4ccco4)c3nc12
    -68.0	nt
82	COCc1cc(C)nc(OCC(=O)O)c1C#N
    4.0	-1.1
83	Cc1[nH]c2ccccc2c1C1=CSC2=NS(=O)(=O)CCN12
    -12.0	nt
84	O=C(COC(=O)C1COc2ccccc2O1)Nc1ccccc1 (stereo not given)
    -10.0	nt
85	CC1=C(C(=O)N2CCCCC2)C(c2cccs2)C2=C(CCCC2=O)N1 (stereo not given)
    9.0	4.3
86	CC(NC(CC(=O)c1ccc(F)cc1)C(=O)O)c1ccccc1 (stereo not given)
    9.0	-0.9
87	COc1ccc(C2CCCN2Cc2nc(N)nc(Nc3ccc(C)cc3)n2)c(OC)c1 (stereo not given)
    4.0	nt
88	CCN(CC(=O)Nc1ccccc1OC)Cc1cc(=O)n2cc(Cl)ccc2n1
    -12.0	nt
89	Cc1nn(-c2ccccc2)nc1-c1nnc(-c2ccc(Cl)cc2)o1
    nt	2.6
90	CNC(=O)NC(=O)C(Sc1nnc(-c2ccc(C)cc2)o1)c1ccccc1 (stereo not given)
    -3.0	nt
91	S=c1oc(-c2ccccc2)nn1CNc1ccccc1
    18.0	4.9
92	Nc1nc(-c2ccccc2)nc2sc3c(c12)CCCC3
    20.0	-1.1
93	O=C(Nc1ccc(Cl)cc1)c1csc(COc2ccc3nonc3c2)n1
    nt	-0.8
94	Cc1cccc(-c2nc3ccccc3c(=O)n2OC(=O)c2c(F)cccc2F)c1
    nt	1.2
95	O=C(c1cccc(F)c1)N1CCN(Cc2c[nH]c3ccccc23)CC1
    8.0	nt
96	CC(c1ccccc1)n1cnc2c(cnn2-c2ccccc2)c1=O (stereo not given)
    -3.0	nt
97	O=C(O)CCN=C1CCCc2ccccc2N1
    5.0	2.5
98	CC1CCc2nc(NC(=O)C(C)C)sc2C1 (stereo not given)
    -16.0	nt
99	CSc1sc(NC(=O)N2CCOCC2)c(-c2ccc(Cl)cc2)c1C#N
    nt	-1.4
100	CC(C)(C)NC(=O)c1nc(-c2ccccc2)n(-c2ccccc2)n1
    -3.0	nt

Ordered by value in Sa helicase inh (low to high): five from the list above.
Below each SMILES – Sa helicase inh	MgrA DNA FP
88	CCN(CC(=O)Nc1ccccc1OC)Cc1cc(=O)n2cc(Cl)ccc2n1
    -12.0	nt
96	CC(c1ccccc1)n1cnc2c(cnn2-c2ccccc2)c1=O (stereo not given)
    -3.0	nt
87	COc1ccc(C2CCCN2Cc2nc(N)nc(Nc3ccc(C)cc3)n2)c(OC)c1 (stereo not given)
    4.0	nt
95	O=C(c1cccc(F)c1)N1CCN(Cc2c[nH]c3ccccc23)CC1
    8.0	nt
92	Nc1nc(-c2ccccc2)nc2sc3c(c12)CCCC3
    20.0	-1.1

(list continues)
Below each SMILES – Sa helicase inh	MgrA DNA FP
101	N#Cc1ccc(NC(=O)C2CCC2)cc1
    nt	-1.6
102	O=C(CSc1nncc(=O)[nH]1)Nc1cccc(Cl)c1
    6.0	nt
103	CCn1cc(Cc2cn(CC)nc2C)c(C)n1
    21.0	nt
104	CC(C)Cn1cnc2c1c(=O)n(Cc1coc(-c3ccccc3)n1)c(=O)n2Cc1ccccc1
    3.0	nt
105	CCOC(=O)COc1ccc(Br)cc1C=C1C(=O)NC(=O)NC1=O
    nt	1.1
106	COc1ccc(CCNC(=O)C2CCCN2C(=O)NC2CCCCC2)cc1OC (stereo not given)
    6.0	0.1
107	c1ccc(N=C2OCC(COc3ccccc3)S2)cc1 (stereo not given)
    -2.0	-1.6
108	CS(=O)(=O)c1ccc([C@@H](O)[C@@H](CF)NC(=O)C(Cl)Cl)cc1
    nt	1.8
109	Cc1ccccc1NC(=O)Cc1nnc(SC(C)c2nc3ccccc3c(=O)[nH]2)n1C (stereo not given)
    11.0	-1.6
110	CCN(Cc1ccccc1)C(=O)Cc1ccccc1
    nt	1.2
111	C=CCSc1nc2sc3c(c2c(=O)n1-c1ccc(C)cc1)CCC3
    12.0	-1.3
112	COC(=O)c1cn(-c2cccc(C)n2)cn1
    nt	3.3
113	Cc1cc(C(=O)N2N=C(C3CC3)CC2(O)C(F)(F)F)c2ccccc2n1 (stereo not given)
    11.0	0.8
114	Cc1c(Br)c([N+](=O)[O-])nn1CC(=O)Nc1cc(C(F)(F)F)ccc1Cl
    nt	-0.5
115	O=C(CSC1=NC2(CCCC2)Nc2ccccc21)Nc1ccc2c(c1)OCCO2
    20.0	nt
116	COc1cccc(C2CC(=O)Nc3nc(N)[nH]c(=O)c32)c1 (stereo not given)
    -22.0	nt
117	COc1ccc(CCN(C)C(=O)CSc2nnc3n2CCCCC3)cc1OC
    5.0	nt
118	CC(=O)Nc1ccc(NC(=O)C(C)OC(=O)C2CC3C=CC2C3)cc1 (stereo not given)
    -17.0	-1.2
119	C=CCN(CC=C)S(=O)(=O)c1ncn[nH]1
    -5.0	1.6
120	CCN1C(=O)c2ccc(-c3nc4cc(Cl)ccc4o3)cc2C1=O
    3.0	1.8
121	CCCCn1c(CCc2cc(OC)c(OC)c(OC)c2)nc2cc(S(N)(=O)=O)ccc21
    5.0	nt
122	CCOC(=O)c1n[nH]c(=S)[nH]c1=O
    -16.0	-0.9

3 entries from above, sorted by SMILES length, lowest first:
Below each SMILES – Sa helicase inh	MgrA DNA FP
119	C=CCN(CC=C)S(=O)(=O)c1ncn[nH]1
    -5.0	1.6
107	c1ccc(N=C2OCC(COc3ccccc3)S2)cc1 (stereo not given)
    -2.0	-1.6
108	CS(=O)(=O)c1ccc([C@@H](O)[C@@H](CF)NC(=O)C(Cl)Cl)cc1
    nt	1.8
